# Screening results: PubChem, National Center for Advancing Translational Sciences (NCATS)
# Six1-Eya2 inh – blocks human Six1 binding to Eya2. 0.56% of 360,000 active. Q15475+O00167. activity change, % (test concentration not listed). AID 651725. AlphaScreen GST-Six1/His-Eya2 binding, biochemical; stronger effect = lower value; control for the full effect not named in the record; in the data active = activity change below about -65%; inconclusive = about -30% to -65%; inactive = above about -30%; further: on the % scale 0 is the no-effect control and ±100 the full control effect; compound concentration not given in the record
# Target sequence (O00167 whole entry, looked up): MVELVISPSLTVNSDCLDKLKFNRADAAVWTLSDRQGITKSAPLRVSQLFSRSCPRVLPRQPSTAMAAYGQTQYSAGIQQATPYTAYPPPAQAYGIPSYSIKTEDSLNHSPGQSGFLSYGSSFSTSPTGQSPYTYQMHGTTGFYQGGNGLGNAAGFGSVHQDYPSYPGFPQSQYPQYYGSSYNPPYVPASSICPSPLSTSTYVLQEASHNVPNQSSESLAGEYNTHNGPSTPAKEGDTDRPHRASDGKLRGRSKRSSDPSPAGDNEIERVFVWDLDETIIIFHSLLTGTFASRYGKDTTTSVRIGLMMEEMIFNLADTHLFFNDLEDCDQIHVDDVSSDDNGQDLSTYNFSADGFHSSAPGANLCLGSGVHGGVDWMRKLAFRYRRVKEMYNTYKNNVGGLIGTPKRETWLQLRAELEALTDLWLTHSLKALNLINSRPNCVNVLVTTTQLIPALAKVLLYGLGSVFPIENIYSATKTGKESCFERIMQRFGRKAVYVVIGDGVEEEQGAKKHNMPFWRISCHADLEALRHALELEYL
# Target sequence (Q15475 whole entry, looked up): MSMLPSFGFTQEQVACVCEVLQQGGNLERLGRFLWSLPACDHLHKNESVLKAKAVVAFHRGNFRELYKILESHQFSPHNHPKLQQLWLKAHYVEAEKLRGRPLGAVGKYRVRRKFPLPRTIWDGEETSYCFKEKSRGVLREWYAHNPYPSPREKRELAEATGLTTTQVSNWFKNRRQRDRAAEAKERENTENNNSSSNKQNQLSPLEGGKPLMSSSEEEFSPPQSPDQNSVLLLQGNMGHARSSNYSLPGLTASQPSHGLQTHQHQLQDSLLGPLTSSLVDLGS
#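 AlphaScreen luminescence read after one hour at 37 °C in darkness. Pin-transferred compounds met GST-Six1 and His-Eya2 protein (5X stock 250 nM/500 nM) plus glutathione donor and Ni-chelate acceptor beads (5X, 50 ug/mL).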
# CtBP-E1A blk – CtBP/E1A binding inhibition; AlphaScreen GST-E1A/His-CtBP binding, 1536-well; stronger effect = lower value; control for the full effect not named in the record; activity change, % (no concentration beside the values); 0.49% of 340,000 active; AID 651724; in the data active means activity change below about -65%; inconclusive means about -30% to -65%; inactive means above about -30%; further: on the % scale 0 is the no-effect control and ±100 the full control effect; compound concentration not given in the record
#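 Protein mix (5X: 125 nM each GST-E1A, His-CtBP) was incubated with pinned compound 2 h at 37 deg C in dark, in 50 mM Tris pH 8.0 buffer with 300 mM NaCl. Glutathione donor and nickel acceptor beads followed; AlphaScreen signal read after 1 h.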
# gsp antagonist – antagonizes gsp, the McCune-Albright syndrome mutation. gsp-mutant cells, cAMP HTRF, 30 min; control for the full effect not named in the record. Potency, µM (highest dose often 76.9 µM), without a hit: at the highest dose activity change, negative = inhibition, most hits filed as inhibitors. 0.4% of 340,000 active. AID 624288; active = falling curve of any shape with a large fitted effect; inconclusive = falling curve, mostly with a smaller effect; inactive = flat or rising curve; cell line not stated here;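 further: intracellular cAMP measured with PDE inhibitor Ro 20-1724 present during compound exposure; potency means the concentration at half of the fitted maximal effect; on the % scale 0 is the no-effect control and ±100 the full control effect; nearly all actives have a fitted effect of over 65% in size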
#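 G418-selected cells were plated in DMEM/10% FBS for 16-24 h at 37C, then treated with compounds plus the PDE inhibitor […] (300 uM solution added) for 30 min at 37C. Intracellular cAMP was measured by HTRF after 30 min lysis at room temperature.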
# D2 agonist – human D2 receptor agonism in beta-arrestin assay | DiscoveRx PathHunter D2 beta-arrestin, luminescence, 90 min; 100% = 57 uM dopamine signal | AID 624465 | P14416 | 0.084% of 360,000 active | activation, % (no concentration beside the values); in the data active = activation above about 40%; inconclusive = about 15% to 40%; inactive = below about 15%; further: compound concentration not given in the record; the text of the record calls up to 30% inactive
#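 DiscoveRx PathHunter D2 beta-arrestin cells (2,100/well) attached overnight, then compound-stimulated 90 min at 37 C in HBSS/10 mM HEPES/0.1% Tween-20 buffer; beta-galactosidase complementation read by luminescence after 1 h at ambient temperature. Dopamine 57 uM final (EC100) as control.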
# gsp agonist – gsp mutant agonism | Potency, µM (doses to about 76.9 µM), for inactives: at the top dose activation (cAMP increase), usual class: activators | gsp mutant cells, cAMP HTRF, 30 min; control for the full effect not named in the record | 0.13% of 340,000 active; active = well fitted activation curve with a large enough effect; inconclusive = small, poorly fitted or top-dose-only effect, or another doubt; inactive = no such curve, though single readings can be large or run the other way; cell line not stated here;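 further: phosphodiesterase inhibitor Ro 20-1724 added with compounds to block cAMP breakdown; potency means the concentration at half of the fitted maximal effect; nearly all actives have a fitted effect of over 60% in size; about a fifth of the inactives were tested at one dose only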
#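 Cells stably selected in G418 were plated at 2000/well, grown 16-24 hr, then given compounds in DMSO with the PDE inhibitor […] (300 uM solution added) for 30 min at 37C; cAMP was read by HTRF.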
# D2 potentiator – human D2 receptor positive allosteric modulation; P14416; DiscoveRx D2 beta-arrestin cells, luminescence, 90 min; 100% = 57 uM dopamine signal; potentiation, % (concentration not given with the values); 0.23% of 360,000 active; active = potentiation of 50% or more; inconclusive = 30% to 50%; inactive = 30% or less;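 further: compound concentration not given in the record; tested on top of an EC20 dose of dopamine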
#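 PathHunter D2 cells, attached overnight at 37 deg C, received compound in DMSO plus dopamine at EC20 (50 nM final) for 90 min at 37 deg C. Beta-arrestin recruitment was read as luminescence after 1 h with detection reagent at ambient temperature.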
# An asterisk follows results filed as active; u = inconclusive; x = not tested or not shown; [ ] = remark or other dose.
SMILES,Six1-Eya2 inh,CtBP-E1A blk,gsp antagonist,D2 agonist,gsp agonist,D2 potentiator
CCc1ccccc1N1CSC2=C(C#N)C(c3ccccc3F)CC(=O)N2C1 (stereo not drawn),-4,9,-8%,2.6,-46%[inhibitor],-5
CCN(C(=O)C1CCN(S(=O)(=O)c2ccc3c(c2)oc(=O)n3C)CC1)c1cccc(C)c1,-2,0,-18%,-3.2,-26%,-1
CCCSc1nnc(CSc2nc(C)cc(C)n2)n1C,-1,8,7%,-3.9,10%[15.4 µM],-4
CSCc1c(C(=O)OCC(=O)NC2CCCCC2)oc2ccccc12,6,x,4%,2.1,15%,-4
O=C(NCc1ccc2c(c1)OCO2)c1cc(Cl)ccc1Cl,9,x,-2%,4.3,-17%,-15
CCN1C(=O)c2ccc(C(=O)Nc3ncc(C)s3)cc2C1=O,1,9,8%,-0.9,8%[15.4 µM],1
N#Cc1ccccc1NC(=O)C1CCCO1 (stereo not drawn),1,-1,x,-3.9,13%,-8
CC1(C)CC(=O)N(CC(=O)O)c2ccccc2S1(=O)=O,7,4,11%,-2.6,-19%,-4
O=C(CN1C(=O)NC(c2ccccc2)(c2ccccc2)C1=O)Nc1ccc2[nH]c(=O)[nH]c2c1,-10,-5,-5%,2.1,-2%[15.4 µM],0
O=[N+]([O-])c1cccc(NC(=S)N2CCCC2)c1,4,0,-5%,-4.2,u,7
Cc1ccc(C(Sc2ccccc2)C(Cn2cncn2)C(=O)c2ccccc2)cc1 (stereo not drawn),-11,-4,-8%,0.9,-9%,-15
COCC(C)N=C1SCCN1Cc1ccccc1 (stereo not drawn),0,5,14%,0.5,15%,0
O=S(=O)(NCC1(N2CCOCC2)CCCCC1)c1ccc(F)cc1,1,0,-2%,-0.8,-35%[inhibitor],-3
O=C(NC1CC1)c1ccc(-c2cnc3cccnn23)cc1,-5,-2,x,-2.5,x,-3
CN(Cc1ccccc1)C(NC(=O)c1ccco1)C(Cl)(Cl)Cl (stereo not drawn),3,2,5%,5.2,-33%[inhibitor],-10
Cc1cccc(NS(=O)(=O)c2c(C)[nH]c(C)c2C(=O)N2CCCC2)c1,3,-3,9%,0.6,21%,-2
O=c1c2ccccc2nnn1CSc1ccc2c(c1)OCCO2,-2,6,u,-2.8,2%,10
CC(OC(=O)c1ccccc1C(=O)O)c1ccccc1 (stereo not drawn),-6,7,0%,-0.3,-15%,7
O=C(Nc1cccc(C(F)(F)F)c1)c1cc(-c2ccc(F)cc2)on1,8,5,21%,0.4,-23%,-29
CN(Cc1nc(Cc2ccccc2F)no1)CC1(N2CCOCC2)CCCCC1,1,14,1%,1.2,-11%,-5
COCCN(CC(=O)Nc1cccc(C)c1C)C(=O)C1CCN(S(=O)(=O)c2ccccc2)CC1,4,-5,-1%,-0.1,13%,-6
CCOc1ccc(NC(=O)c2nccnc2CO)cc1,0,0,7%,-5.6,19%,-2
CC(=O)NS(=O)(=O)c1ccc2c(c1)C(=O)c1cc(S(=O)(=O)NC(C)=O)ccc1-2,-5,x,8%,-4.6,u,-19
O=C(NCCCN1CCN(Cc2ccccc2)CC1)C1CCN(S(=O)(=O)N2CCCC2)CC1,0,-6,3%,1.5,11%,-8

# Of the compounds above, six contain a halogen.
SMILES,Six1-Eya2 inh,CtBP-E1A blk,gsp antagonist,D2 agonist,gsp agonist,D2 potentiator
CCc1ccccc1N1CSC2=C(C#N)C(c3ccccc3F)CC(=O)N2C1 (stereo not drawn),-4,9,-8%,2.6,-46%[inhibitor],-5
O=C(NCc1ccc2c(c1)OCO2)c1cc(Cl)ccc1Cl,9,x,-2%,4.3,-17%,-15
O=S(=O)(NCC1(N2CCOCC2)CCCCC1)c1ccc(F)cc1,1,0,-2%,-0.8,-35%[inhibitor],-3
CN(Cc1ccccc1)C(NC(=O)c1ccco1)C(Cl)(Cl)Cl (stereo not drawn),3,2,5%,5.2,-33%[inhibitor],-10
O=C(Nc1cccc(C(F)(F)F)c1)c1cc(-c2ccc(F)cc2)on1,8,5,21%,0.4,-23%,-29
CN(Cc1nc(Cc2ccccc2F)no1)CC1(N2CCOCC2)CCCCC1,1,14,1%,1.2,-11%,-5

# Next part.
SMILES,Six1-Eya2 inh,CtBP-E1A blk,gsp antagonist,D2 agonist,gsp agonist,D2 potentiator
CCCN1C(=O)c2cc(C(=O)NCc3ccc(OC)cc3)ccc2C1O (stereo not drawn),16,0,-3%,-2.2,1%,-3
c1ccc2c(c1)ncn2CCC1CCCCC1,4,7,-15%,-1.6,11%,7
CC/C(=N\NC(=O)c1cc(C)oc1C)c1ccc(OC(F)F)cc1,-3,-25,x,-1.6,9%,-12
Cc1cc(=O)[nH]c(Nc2cccc(Br)c2)n1,-14,x,-4%,6.2,-3%,1
COc1ccc(CC(=O)NC(C)c2ccc3ccccc3c2)cc1 (stereo not drawn),8,-1,-6%,1.1,-1%,-1
COc1ccccc1NC(=O)NCCc1c[nH]c2ccccc12,-3,1,0%,-0.7,-5%,-10
Cc1ccc(NC(=O)Cn2sc3nc(C)cc(C)c3c2=O)c(Cl)c1,3,-6,-17%,-0.5,12%,-9
O=C(C[n+]1cccc(CNC(=O)c2ccc(OC(F)F)cc2)c1)Nc1ccc(F)cc1,4,-1,8%,-2.0,18%,-35
CCN1C(=O)[C@H]2[C@@H](c3ccc(-c4cc(C(C)=O)cs4)cc3)N3CCC[C@@]3(C(=O)OC)[C@H]2C1=O,6,5,u,-1.5,4%,-11
C/C(CC(=O)Nc1ccc(C)c(Cl)c1)=N\NC(=O)Cc1ccccc1,1,-2,0%,-0.5,2%,-19
COC(=O)NCc1cc2cc(Cl)ccc2[nH]1,2,-3,-6%,-1.6,-15%,-11
COc1cc(C)nc(NS(=O)(=O)c2ccccc2)n1,2,5,-15%[15.4 µM],-15,u,7
CCC(C)NC(=O)CN(c1ccc(OC)cc1)S(=O)(=O)c1ccc(NC(C)=O)cc1 (stereo not drawn),6,-5,-8%,-4.7,u,-6
O=C(COc1ccc(Cc2ccccc2)cc1)c1ccc(F)cc1,100,58,2%,3.7,7%,-8
Cc1nc(C(F)(F)F)ccc1C(=O)N1CCC1(C)C(=O)NS(=O)(=O)c1cccc(F)c1 (stereo not drawn),-7,4,x,-3.5,x,3
COc1cc(/C=N/NC(=O)/C(=C\c2ccc([N+](=O)[O-])cc2)NC(=O)c2ccccc2)cc(OC)c1O,-21,-6,-1%,-2.2,1%,-17
COc1ccc(CN(C)CC(=O)Nc2cccc3ccccc23)cc1F,-9,-3,-18%,-0.7,-7%,-14
Cc1c(Cc2ccccc2)c(=O)oc2c(CN(C)C)c(O)c(Cl)cc12,9,9,-6%,-1.1,10%,7
O=C(CCc1nc(-c2ccccc2Cl)no1)NC1CCCC1,4,5,5%,-0.1,28%,-7
Cc1cccc2c(=O)cc(C)n(CC(=O)N3CCCCC3)c12,2,3,-2%,-3.2,u,-11
Cc1ccc(N(CC(O)CN2C(=O)NC(C)(C)C2=O)S(=O)(=O)c2ccc(C)cc2)cc1 (stereo not drawn),3,5,8%,-0.5,16%[15.4 µM],0
CC(OC(=O)c1cccc(S(=O)(=O)N2CCCCCC2)c1)C(=O)Nc1ccc(S(N)(=O)=O)cc1 (stereo not drawn),3,-5,-15%,-1.4,-2%,5
O=[N+]([O-])c1ccc(-c2nnc(-c3ccccc3)c(NCCCO)n2)cc1,1,6,2%,4.6,-4%,3
CC(=O)c1c(C)nc(-c2ccc3c(c2)OCO3)n1O,-1,2,5%,-5.3,-29%,-13
CC(C)(C)NC(=O)C(c1ccc(-c2ccccc2)cc1)N(C[C@H]1CC[C@@H]([C@@H]2CC[C@H](CO)O2)O1)C(=O)c1ccc(C(C)(C)C)cc1 (stereo partly drawn),-11,-5,u,-2.5,x,x
Cc1ccc(C)c(N2CCN(S(=O)(=O)c3ccc(-c4ccc(=O)[nH]n4)o3)CC2)c1,-3,1,-7%,2.3,u,-1
Cc1nc(N2CCN(c3ccccn3)CC2)c2c(C)c(C(=O)N3CCN(c4cccc(Cl)c4)CC3)sc2n1,-1,0,5%,-0.7,-13%[15.4 µM],-5
O=C(/C=C/c1ccc(Cl)cc1Cl)n1cccn1,-3,-20,12%,-0.2,1%,-20
CC(C)OC(=O)c1ccc(NC(=O)c2cncc(Br)c2)cc1,-1,4,-8%,1.1,-1%[15.4 µM],4
CCOC(=O)c1ccc(-c2csc(NC(=O)CN3CCC(C)CC3)n2)cc1,-9,-17,8%,-0.1,10%[15.4 µM],-8
Nc1[nH]nc2ncc3cc4ccccc4nc3c12,u,-23,-4%,-2.5,12%[15.4 µM],15
COc1ccc(C(=O)Nc2c(Cl)cc(Cl)cc2C(=O)N2CCC(C)CC2)cc1,9,-5,-5%,-2.8,12%,-1
O=C(C(Cl)Cl)N1CCN(c2ccccn2)CC1,9,6,14%,-1.5,8%,-6
Cc1csc(NC(=O)c2ccoc2C)n1,2,-2,-4%,-0.4,5%,-4
CC(=O)c1ccc(N(C(=O)Cc2c[nH]c3ccccc23)C(C(=O)NC2CCCCC2)c2cccs2)cc1 (stereo not drawn),-11,-8,-7%,-1.1,24%,-5
COc1cccc(-n2c(=O)c3c(C)c(C(=O)N(C)C)sc3n(CC(=O)NCC3CCCO3)c2=O)c1 (stereo not drawn),7,0,1%,-3.2,12%[15.4 µM],1
C/C(=N\NC(=O)c1cccnc1)c1ccc(OC2OCCOC2Oc2ccc(/C(C)=N/NC(=O)c3cccnc3)cc2)cc1 (stereo not drawn),0,0,x,8.5,2%[15.4 µM],-5
COc1cccc(C2=NOC(C(=O)NCc3ccc(F)cc3)C2)c1 (stereo not drawn),10,4,-3%,-0.9,-7%,-5
O=C(NNC(=O)c1cccc2ccccc12)c1ccc(Cl)c(Cl)c1,-6,0,2%,-3.5,0%[15.4 µM],-7
COc1ccc(-c2sc3ccccc3c2C#CCCO)cc1,8,-1,-14%,-1.2,x,-17
O=C1CS/C(=N\c2ccccn2)N1C1CCCCC1,-3,5,12%,-4.8,u,-11
CC(C)NC(=O)c1ccc(CN2CCC(Cc3ccccc3)CC2)cc1,-4,2,3%,5.1,-72%[inhibitor],-18
CCc1c(C)nc(SCC(=O)NNC(=O)c2ccco2)[nH]c1=O,2,x,-6%,-3.9,u,-9
CCOCCCNC(=O)c1cc2c(=O)[nH]c3ccccc3c2s1,-7,-3,11%,u,17%,8
CN1C2CCC1/C(=C\c1ccccc1F)C(=O)/C2=C/c1ccccc1F,5,-1,11%,-2.5,-15%,-10
COc1ccc(OC)c(NC(=S)N(CCc2c(C)[nH]c3ccc(C)cc23)Cc2cccs2)c1,-22,-16,-10%,3.0,-14%,-7
O=c1[nH]cnc2c1ncn2[C@@H]1O[C@H](COS(=O)(=O)O)[C@@H](O)[C@H]1O,10,3,14%,-0.3,u,-6
